# Beta2AR agonist: activates human beta-2 adrenergic receptor causing internalization; AID 504454; 340,000 compounds, 0.43% hits; response, % (no concentration beside the values); Am2.2-beta2AR cells, FAP receptor internalization, flow cytometry; reference of the scale not given here; P07550;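 active means response above a set limit, near 3 SD of response in nonfluorescent compounds, cut at about 42% in these data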;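 further: stock transfer was 100 nL into about 11 µL; a reference agonist was the positive control; negative values mostly stem from fluorescent compounds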
# Target sequence (P07550 whole entry, looked up): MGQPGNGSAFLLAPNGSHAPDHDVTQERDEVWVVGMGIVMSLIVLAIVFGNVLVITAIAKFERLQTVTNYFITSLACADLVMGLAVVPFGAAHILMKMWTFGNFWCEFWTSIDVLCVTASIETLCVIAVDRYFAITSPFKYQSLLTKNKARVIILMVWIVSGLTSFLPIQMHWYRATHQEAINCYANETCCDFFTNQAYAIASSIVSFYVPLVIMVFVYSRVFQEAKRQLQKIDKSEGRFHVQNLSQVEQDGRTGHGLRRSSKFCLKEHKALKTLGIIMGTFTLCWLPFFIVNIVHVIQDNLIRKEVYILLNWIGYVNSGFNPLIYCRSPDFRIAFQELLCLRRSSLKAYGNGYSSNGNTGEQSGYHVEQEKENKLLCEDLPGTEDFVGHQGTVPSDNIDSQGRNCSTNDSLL
# Calb FLC: C. albicans growth modulation with fluconazole; C. albicans CaCi-2 (fluconazole-resistant clinical isolate) + fluconazole, Alamar Blue growth, 48 h; growth inhibition, % (no concentration beside the values); 300,000 compounds, 0.57% hits;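 active means most replicates above 75%; inconclusive means exactly half above 75%; inactive means most below 75%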;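 further: all wells also contain fluconazole at 8 µg/ml as a sub-toxic cotreatment; 0% = median of DMSO wells and 100% = median of geldanamycin control wells; wells of about 8 µL received 7.5 nL stock; the first replicate is given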
# A1 inh: inhibitors of the anti-apoptotic protein A1, read as caspase activation. 330,000 compounds, 0.066% hits. MEF A1-2A-BIM cells, Caspase-Glo 3/7 luminescence, 3 h; percent of clofoctol response, vehicle zero. caspase activation, % (concentration not given with the values). AID 2462;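 active means over half of replicate activation scores above 10%, or exactly half above 10 with the replicate mean above 10; inconclusive means replicate mean below 10 yet half the replicates above 10; inactive means over half of replicates below 10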;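 further: wells of about 30 µL received 50 nL stock; many hits fall short of the cut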
# LANA-H2B inh: blocks KSHV LANA binding to histone H2A/H2B; Q9QR71; cell-free LANA-H2A/H2B peptide, fluorescence polarization; inhibition, % (concentration not given with the values); 320,000 compounds, 0.6% hits; AID 2629; in the data active means inhibition mostly above about 10%, no sharp cut-off; inactive means mostly below about 6.7%;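 further: stock transfer was 7.5 nL into about 10 µL; 0% = median of vehicle wells and 100% = median of positive control wells; one replicate is shown; the record names a cut of 25% in any replicate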
# ALR H2O2 inh: human ALR oxidase inhibition via reduced H2O2; inhibition, % (concentration not given with the values); 290,000 compounds, 3.8% hits; P55789; AID 485317; purified ALR, DTT oxidation, H2O2 HRP-luminol luminescence;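 active means mean and each replicate at 75% or more; inconclusive means only one of the two met; inactive means neither met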;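 further: stock transfer was 7.5 nL into about 7.5 µL; 0% = neutral wells and 100% = wells with inactivated enzyme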
# Target sequence (P55789 whole entry, looked up): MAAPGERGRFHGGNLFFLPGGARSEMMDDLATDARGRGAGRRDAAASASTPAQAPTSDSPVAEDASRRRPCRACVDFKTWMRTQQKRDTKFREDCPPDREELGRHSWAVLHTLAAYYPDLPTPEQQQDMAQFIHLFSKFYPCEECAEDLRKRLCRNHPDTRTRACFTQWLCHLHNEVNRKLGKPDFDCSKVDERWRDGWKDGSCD
# Beta cell apopt: beta cell apoptosis inhibition; INS-1E cytokine-induced death, ATP luminescence, 48 h; percent of positive-control rescue, neutral wells zero; protection from apoptosis, % (concentration not given with the values); 300,000 compounds, 0.8% hits; AID 435005;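 active means all replicates at 75% or more, or half of them and the mean; inconclusive means half reach 75% but not the mean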;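 further: 0% = cytokine-treated negative control wells and 100% = positive control rescue; higher means more ATP so stronger rescue from cytokine killing; wells of about 40 µL received 100 nL stock; the first replicate is given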
# Ecoli rRNA inh: inhibits bacterial ribosomal RNA function over humanized ribosomes | 350,000 compounds, 1.6% hits | E. coli WT GFP vs humanized-ribosome RFP mutants, fluorescence, 24 h; hits give low values; DMSO median 0, no signal -100 | AID 720706 | GFP signal change (wild-type ribosome), % (test concentration not listed);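 active means significant combined selectivity score with lowered wild-type GFP, culture density cut under 30%, mutant RFP and density less affected; inactive means any of these conditions unmet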; further: one replicate is shown; some compounds called inactive have numbers as strong as hits
# T cruzi repl: T. cruzi replication inhibition. T. cruzi beta-gal in NIH3T3, luminescence, 90 h. inhibition, % (no concentration beside the values). 300,000 compounds, 1.4% hits. AID 1885;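 active means mean inhibition across valid replicates above about 55%, limit read from the data; inconclusive means mean below that limit but half or more replicates reach it; inactive means mean below it, under half of replicates reach it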;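 further: signal also drops with host cell toxicity which is not excluded here; 0% = plate median of DMSO wells and 100% = zero luminescence signal; higher percent means less beta-gal luminescence so fewer parasites; stock transfer was 50 nL into about 50 µL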
# Ecoli rRNA inh OD600: recorded beside Ecoli rRNA inh, whose call it bears; OD600 change, %; measured here: OD600 growth;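 optical density of the mix in the first replicate; 0 = DMSO median and -100 = no signal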
# Ecoli rRNA inh RFP: further read-out of Ecoli rRNA inh, marked with its call; RFP signal change, %; measured here: RFP humanized mutant strains;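 first replicate; 0 = DMSO median and -100 = no signal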
# An asterisk follows results filed as active; ? = inconclusive; . = no result given.
mol,Beta2AR agonist,T cruzi repl,Ecoli rRNA inh OD600,LANA-H2B inh,Ecoli rRNA inh RFP,Ecoli rRNA inh,ALR H2O2 inh,Beta cell apopt,Calb FLC,A1 inh
Cc1ccc(NC(=O)c2sccc2-n2cccc2)c(Cl)c1,-3,17,-1,-3.7,1.3,0,-18,3,7,0.4
NC(=O)c1ccc(C(=O)N/N=C(/Cc2ccccc2)c2ccccc2)cc1,6,-9,22,-3.0,0.8,10,44,-7,-18,-0.1
COc1cccc(-c2nnn(CCC(=O)O)n2)c1,-4,-11,.,-3.9,.,.,-12,-4,18,-2.0
O=C(Oc1cccc2cccnc12)c1cccs1,6,24,.,1.4,.,.,-17,-12,-7,0.1
Cc1noc(C)c1CSCC(=O)Nc1cc(C(F)(F)F)ccc1N1CCOCC1,-1,.,-29,2.5,1.5,-6,-3,-1,.,-1.0
O=C(CSc1nnc(COc2ccc(Cl)cc2)o1)N1CCN(c2ccccc2)CC1,-1,16,0,2.0,-1.9,7,-8,-1,-1,0.4
Cc1ccc(C(=O)N/C(=C/c2cccs2)C(=O)NCCCn2ccnc2)cc1,0,-18,4,7.2,-7.2,-3,-1,6,-2,1.1
Cc1ccc(NC(=O)CCCn2c(=S)[nH]c3ccsc3c2=O)cc1C,4,8,2,-3.2,-1.1,0,84*,2,36,1.5
C/C=C/C(O)c1ccc2ccccc2c1 (stereo not drawn),.,-26,.,-2.0,.,.,-25,4,-3,0.3
Fc1ccc(/C=N\Nc2cccc(F)c2)cc1,-7,-16,7,0.8,2.4,14,.,-4,3,0.3
Cc1ccc(CNC(=O)C2CCCN2C(=O)Nc2cccc(Cl)c2)cc1 (stereo not drawn),-2,7,12,-0.2,1.8,1,-10,5,1,-0.4
COc1ccc(NC(=O)Nc2ccccc2F)c(C)c1,-1,-16,8,3.8,0.4,13,2,-3,-30,-2.6
O=C(NC(=S)NCCCN1CCOCC1)c1cccc2ccccc12,-2,-4,-10,-2.3,-6.5,-2,-8,1,28,0.0
COc1ccc(N2CCN(C(=S)Nc3cccc(OC)c3)CC2)cc1,-2,5,8,0.4,1.2,13,-11,-3,-25,0.6
O=C(CN1CCC(NC(=O)Cc2ccccc2)CC1)Nc1ccccc1Br,-3,3,-15,3.2,0.3,-12,-1,6,17,-0.1
COc1ccccc1NC(=O)C1CCCN1S(=O)(=O)c1ccc(Cl)cc1 (stereo not drawn),-3,-6,-19,-0.2,5.9,-5,36,-2,-5,0.0
CC(C)c1ccc(C(=O)NNC(=O)C2CC=CCC2C(=O)O)cc1 (stereo not drawn),7,-23,-6,3.2,-1.5,0,-2,.,-10,-1.2
CC1(C)Cc2c(c(N3CCOCC3)nc3snc(NC(=O)c4ccccc4)c23)CO1,-11,3,.,-4.4,.,.,.,2,-1,0.1
CCOc1ccc(C(=S)N2CCCC2)cc1,-3,-33,.,1.3,.,.,-14,-12,-11,0.4
COc1ccc(Nc2cc(C(=O)NCCCN3CCOCC3)c3ccccc3n2)c(OC)c1,5,-8,.,0.4,.,.,.,-8,-3,1.5
Cc1cc(C)n(-c2ccc(C(=O)Nc3ccc(C)c(S(=O)(=O)N4CCOCC4)c3)cc2)n1,30,-2,-18,-7.1,-6.2,-12,-24,4,6,0.1
CC(C)NC(=O)Nc1cccc2c1O[C@H](CN(C)S(=O)(=O)c1ccccc1)[C@@H](C)CN([C@H](C)CO)C2=O,7,.,-1,-1.2,0.3,-2,4,-3,.,?
CCc1cc2c(NC(Cc3ccccc3)C(=O)O)ncnc2s1 (stereo not drawn),1,6,-1,-10,-0.4,1,36,-6,5,0.1
O=C(O)c1cc(NCc2ccc(F)cc2)ccc1N1CCOCC1,-2,-19,.,-0.9,.,.,97*,-9,14,0.8
c1cc2nncn2nc1N1CCCC1,3,5,.,-13,.,.,-18,-9,-4,0.6
CCCN(C(=S)Nc1ccccc1)C1CCS(=O)(=O)C1 (stereo not drawn),-11,4,.,-12,.,.,.,-4,2,-0.5
O=C(COC(=O)CCSc1ccc(F)cc1)NCc1ccc(F)cc1,0,.,-4.3*,0.5,0.2*,-17*,9,2,.,-1.1
CC(Oc1ccccc1)c1ccnc2nc(/N=C/N(C)C)nn12 (stereo not drawn),-4,-12,.,0.3,.,.,-2,-6,28,-0.4
CCC(=O)N1CCc2cc(S(=O)(=O)CCC(=O)NC(C)CC)ccc21 (stereo not drawn),-2,-7,11,2.0,2.3,7,-30,-7,?,0.4
O=C(Nc1ccccn1)C(F)(F)C(F)(F)C(F)(F)C(F)(F)C(=O)Nc1ccccn1,-20,-13,6,.,-4.1,7,.,-20,18,0.1
Nc1ccc2c(c1)CC(=O)c1ccccc1S2,7,-2,8,.,-5.4,11,.,-3,-20,0.6
COc1ccc(S(=O)(=O)NCc2cc(=O)n(C)c(=O)n2C)cc1C,-1,4,8,0.7,-1.2,0,-2,-3,4,1.6
COc1ccc(-c2[nH]ncc2CN(C)CCc2c(C)n[nH]c2C)c(F)c1,3,7,7,8.6,3.9,12,0,1,1,0.3
Cc1ccc(S(=O)(=O)NNC(=O)CC#N)cc1,11,-19,10,0.0,-2.6,6,28,2,-11,0.4
C1=CC(c2cc3ccccc3o2)OC(CCc2ccccc2)C1 (stereo not drawn),3,-17,-21,-0.4,-3.6,-4,16,6,-7,0.7
Cc1cccc(NC(=O)C2CCCN2C(=O)Oc2ccccc2)c1 (stereo not drawn),10,-11,.,-0.9,.,.,1,-3,-1,-0.3
O=C(CN1CCN(CN2C(=O)NC3(CCCCCC3)C2=O)CC1)Nc1cccc(F)c1,0,.,16,-2.0,1.6,15,1,-12,.,-0.5
COc1ccc(N2CCN(S(=O)(=O)CCNC(=O)C34CC5CC(CC(C5)C3)C4)CC2)cc1,-4,-15,4,4.5,3.1,-5,50,7,3,1.8
CCOCCCNC(=O)c1cn(C)c2ccc(S(=O)(=O)N3CCCC3)cc2c1=O,-6,3,1,-4.3,0.5,-7,-2,-4,0,-1.7
O=C(OCC(=O)N1CCN(S(=O)(=O)c2ccc(Cl)cc2)CC1)c1cc(Br)ccc1O,15,-3,17,5.0,1.1,9,-2,-1,2,1.0
CCCOc1ccc([C@@H]2C3CN(C(=O)OCC)CC=C3C(C#N)=C(N)C2(C#N)C#N)cc1OC (stereo partly drawn),-2,16,-16,1.1,17,-5,4,-2,10,-0.2
CCOC1OC2C(CO)OC(n3cnc4c(N)ncnc43)C2O1 (stereo not drawn),-1,-3,14,-5.7,-0.3,5,1,-7,-1,0.0
NC(=O)CS(=O)(=O)c1ccc(Cl)cc1,-5,-12,-3,3.1,4.9,2,-8,-12,7,0.4
CC1CC(C(F)(F)F)n2ncc(C(=O)O)c2N1 (stereo not drawn),4,-7,.,3.5,.,.,-4,2,-1,-0.3
COc1ccc(-c2nnn(CC(=O)NCc3cccs3)n2)cc1OC,3,-8,.,2.1,.,.,-8,-13,-4,0.3
CCC(=O)c1cn([C@H](CCC(OC)OC)CC(=O)OC(C)(C)C)cc1CC,-16,-14,7,6.3,3.8,9,14,-9,0,-0.8
COc1ccc(OC)c(NC(=S)NN2CCN(C)CC2)c1,-3,-8,.,-2.0,.,.,31,-9,3,-0.7
O=C(COc1ccccc1)Nc1cccc(-c2nnc(-c3ccccc3)o2)c1,-22,-12,.,0.6,.,.,-1,3,-4,-0.3
Cc1ccc(-c2nc3ccccc3o2)cc1NC(=S)NC(=O)c1cccs1,-1,5,.,1.4,.,.,-1,0,6,0.4
Cc1cc(C)n(-c2nc(SCCN(C)C)c3c4c(sc3n2)COC(C)(C)C4)n1,12,65*,-72,-3.1,-23,-49,-9,23,6,-1.2
CN1CCN(c2ccc(S(=O)(=O)N3CCCCC3)cc2NC(=O)/C=C/c2ccc(Cl)c([N+](=O)[O-])c2)CC1,19,60*,-57,-2.6,-5.8,-50,.,.,1,0.4
O=C(Nc1cccc(C(F)(F)F)c1)c1scc2c1OCCO2,10,-11,8,5.1,-1.9,7,-2,3,13,-0.7
COc1ccc2nc(SCc3ccccc3)nc(C)c2c1,5,2,-29,-0.4,-2.2,-25,-57,-8,-5,0.2
O=C(Nc1cccnc1)c1cc(-c2cc(Cl)ccc2O)n[nH]1,12,-14,4,4.6,-0.9,-14,.,1,-11,-2.4
Cc1cnc(C(=O)OCC(=O)c2ccc(F)c(F)c2)cn1,-8,1,7,2.5,-2.8,2,-4,-4,-2,0.7
CCc1ccccc1N(CC(=O)NC(C)(C)C)C(=O)CCC(=O)Nc1ccccn1,8,5,2,-5.9,0.7,12,.,.,3,-0.1
COCCNC(=O)c1ccc2ccccc2n1,-3,7,.,-4.2,.,.,-4,4,1,0.8
COc1ccc(NC(=O)CN(C)C(=O)c2cn(-c3ccccc3)nc2-c2cccs2)cc1,5,-5,-21,6.5,2.4,-22,0,-2,5,-0.3
Cc1ccc(SCc2nc(-c3ccccc3)no2)cc1,-4,5,.,-0.2,.,.,-5,-8,-4,-0.2
Cn1/c(=N/NC(=O)c2cccc(OC(F)F)c2)sc2ccccc21,-5,1,6,-0.2,47,3,-12,4,17,1.4

# The list goes on.
mol,Beta2AR agonist,T cruzi repl,Ecoli rRNA inh OD600,LANA-H2B inh,Ecoli rRNA inh RFP,Ecoli rRNA inh,ALR H2O2 inh,Beta cell apopt,Calb FLC,A1 inh
O=C(COc1ccc(Cl)cc1Cl)NN1C(=O)/C(=C\c2ccc(Cl)cc2)SC1=S,6,-8,7,1.8,3.6,1,-24,.,-8,1.1
COc1ccc(S(=O)(=O)CC(=O)Nc2nnc(C(F)(F)F)s2)cc1,1,-22,-5,2.8,-1.6,-7,-7,0,-14,0.7
CCOc1ccccc1N(CC(=O)Nc1cccc2ccccc12)S(C)(=O)=O,-3,5,-16,-2.1,2.7,-14,-27,2,4,-0.7
CCCCn1nc2cc(C(=O)NCc3ccccc3OC)ccc2c1OCC,5,26,2,4.9,-0.5,-6,4,0,0,0.6
CCn1c(=NC(=O)c2cccc(N3C(=O)CCC3=O)c2)sc2c(OC)ccc(OC)c21,0,9,5,6.4,-3.0,-3,-1,-4,3,-0.2
Cc1ccc(CNC(=O)C2c3ccccc3C(=O)N(C)C2c2c[nH]c3ccccc23)o1 (stereo not drawn),.,12,.,6.5,.,.,-2,-5,-1,-0.7
CCn1c(C(=O)O)c(CC(=O)N(C)c2ccc(OC)cc2OC)c2ccccc21,-6,-8,3,-2.5,-0.6,-1,-16,-8,-5,0.0
COc1ccc(OC)c(C2C(C(=O)c3cccs3)=C(O)C(=O)N2CCN(C)C)c1 (stereo not drawn),9,-3,.,8.2,.,.,5,-5,-11,-0.3
Cc1c(C(=O)Nc2nnc(C(F)(F)F)s2)oc2ccccc12,16,17,2,0.9,-1.1,4,-2,36,11,0.2
CCOC(=O)C1=C(C)N(CCCCCC(=O)O)C(=O)NC1c1ccc(Br)cc1 (stereo not drawn),-9,-6,.,-4.9,.,.,.,-1,35,0.4

# Some of the compounds tested. The share of hits here may be higher or lower than overall.
